Bioassay records deposited in PubChem BioAssay by National Center for Advancing Translational Sciences (NCATS).
PINK1 expr mod: A Quantitative High throughput Screen to Identify Chemical Modulators of PINK1 Expression; PINK1 immunofluorescence, high-content cytometry, 24 h; Potency, µM (series often up to 76.6 µM), inactives show top-dose activation (PINK1 increase), actives largely listed as activators; 410,000 tested, 0.2% active; AID 624263, 2012; active = well fitted activation curve with a large enough effect; inconclusive = small, poorly fitted or top-dose-only effect; inactive = flat fitted curve, though single readings scatter; cell line not stated here;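 further: potency means the concentration at half of the fitted maximal effect; % of control where 0% means no effect; nearly all actives have a fitted effect of over 65% in size; a mitochondrial uncoupler was the plate control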
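Fluorescence from anti-PINK1 antibody, together with nuclear and cell stains, was scanned on a laser-scanning cytometer. Before staining, stable-line cells were incubated 24 hours with compounds at 5 concentrations; primary antibody 12 h at 10 degrees C.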
D2 ag: Beta-Arrestin HTS for Positive Allosteric Modulators of the Human D2 Dopamine Receptor: Agonists | D(2) dopamine receptor (Homo sapiens), P14416 | DiscoveRx PathHunter D2 beta-arrestin, luminescence, 90 min; 100% = 57 uM dopamine signal | activation, % (concentration not given with the values) | 360,000 tested, 0.084% active | AID 624465, 2012; in the data active = activation above about 40%; inconclusive = about 15% to 40%; inactive = below about 15%; further: compound concentration not given in the record; the text of the record calls up to 30% inactive
Target sequence (P14416 whole entry, looked up): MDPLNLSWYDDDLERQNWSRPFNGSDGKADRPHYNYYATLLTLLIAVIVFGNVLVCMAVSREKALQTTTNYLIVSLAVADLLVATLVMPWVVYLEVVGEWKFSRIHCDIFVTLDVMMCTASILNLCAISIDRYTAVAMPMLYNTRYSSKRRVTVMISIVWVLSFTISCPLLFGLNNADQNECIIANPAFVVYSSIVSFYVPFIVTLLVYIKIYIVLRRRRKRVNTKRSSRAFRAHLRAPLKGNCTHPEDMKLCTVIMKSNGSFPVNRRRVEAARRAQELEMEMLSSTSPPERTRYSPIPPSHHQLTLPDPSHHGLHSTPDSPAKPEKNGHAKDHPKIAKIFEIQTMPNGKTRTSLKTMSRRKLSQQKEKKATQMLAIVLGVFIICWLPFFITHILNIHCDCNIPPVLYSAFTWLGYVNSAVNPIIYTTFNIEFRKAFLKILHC
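Agonist mode: compounds alone added to overnight-plated D2 PathHunter cells for 90 min at 37 C, with 57 uM final dopamine (EC100) defining full response. Beta-arrestin recruitment detected by chemiluminescent reagent, read after 1 h at ambient temperature.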
D2 PAM: Beta-Arrestin HTS for Positive Allosteric Modulators of the Human D2 Dopamine Receptor: Potentiators; DiscoveRx D2 beta-arrestin cells, luminescence, 90 min; 100% = 57 uM dopamine signal; 360,000 tested, 0.23% active; AID 624464, 2012; D(2) dopamine receptor (Homo sapiens), P14416; potentiation, % (concentration not given with the values); active = potentiation of 50% or more; inconclusive = 30% to 50%; inactive = 30% or less;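 further: compound concentration not given in the record; tested on top of an EC20 dose of dopamine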
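PathHunter beta-arrestin assay in DiscoveRx D2 cells. Compounds were added with an EC20 of dopamine (50 nM final) for 90 min at 37 deg C. Luminescence was read 1 h after detection reagent, with 57 uM dopamine as the EC100 control.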
TRPML1 agonist: qHTS for Agonists of the Human Mucolipin Transient Receptor Potential 1 (TRPML1); Mucolipin-1 (Homo sapiens), Q9GZU1; TRPML1-expressing cells, Ca2+ dye fluorescence, FDSS; host cell line not named in the record; reference of the full effect not given here; activation, % (test concentration not listed); 410,000 tested, 0.12% active; AID 624414, 2012; in the data active = activation above about 50%; inconclusive = about 30% to 50%; inactive = below about 30%; further: 0% is about no effect; the text of the record puts the active cut at 80%
Target sequence (Q9GZU1 whole entry, looked up): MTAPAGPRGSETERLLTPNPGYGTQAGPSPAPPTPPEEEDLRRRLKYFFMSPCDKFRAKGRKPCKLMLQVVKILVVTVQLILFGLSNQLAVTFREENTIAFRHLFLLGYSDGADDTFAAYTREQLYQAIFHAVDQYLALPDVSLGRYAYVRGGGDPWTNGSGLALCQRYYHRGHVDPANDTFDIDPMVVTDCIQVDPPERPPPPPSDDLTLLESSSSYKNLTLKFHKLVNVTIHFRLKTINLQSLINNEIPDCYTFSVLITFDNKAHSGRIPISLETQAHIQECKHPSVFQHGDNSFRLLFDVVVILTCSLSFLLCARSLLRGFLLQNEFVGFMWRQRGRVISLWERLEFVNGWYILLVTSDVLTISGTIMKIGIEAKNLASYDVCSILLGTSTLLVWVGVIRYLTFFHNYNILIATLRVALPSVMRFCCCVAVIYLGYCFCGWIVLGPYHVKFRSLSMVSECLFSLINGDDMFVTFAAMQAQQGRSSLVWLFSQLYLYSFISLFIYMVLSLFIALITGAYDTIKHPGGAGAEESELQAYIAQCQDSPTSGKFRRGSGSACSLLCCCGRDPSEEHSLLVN
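Calcium fluorescence on an FDSS kinetic reader gave the read-out. Tet-induced TRPML1-DL cells were plated overnight, dye-loaded (Ca8 with quencher, 45-90 min, room temperature, dark), then read 110 s after compound addition, and again 110 s after 4uM final 54-4 (EC80).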
Six1-Eya2 blk: qHTS Assay for Inhibitors of the Six1/Eya2 Interaction | Homeobox protein SIX1 (Homo sapiens) + Protein phosphatase EYA2 (Homo sapiens), … | AlphaScreen GST-Six1/His-Eya2 binding, biochemical; active compounds read low; control for the full effect not named in the record | activity change, % (test concentration not listed) | 360,000 tested, 0.56% active; in the data active = activity change below about -65%; inconclusive = about -30% to -65%; inactive = above about -30%; further: on the % scale 0 is the no-effect control and ±100 the full control effect
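Six1/Eya2 binding was read as AlphaScreen signal after compounds were pinned into GST-Six1 plus His-tagged Eya2 (5X stock 250/500 nM) in pH 8.0 Tris/NaCl/TCEP buffer, beads added, then incubated 1 h, 37 C, dark.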
CtBP-E1A blk: qHTS Assay for Inhibitors of the CtBP/E1A Interaction. CtBP / adenovirus E1A interaction (AlphaScreen). AlphaScreen GST-E1A/His-CtBP binding, 1536-well; active compounds read low; control for the full effect not named in the record. activity change, % (concentration not given with the values). 340,000 tested, 0.49% active. AID 651724, 2012; in the data active means activity change below about -65%; inconclusive means about -30% to -65%; inactive means above about -30%; further: on the % scale 0 is the no-effect control and ±100 the full control effect
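AlphaScreen with 125 nM GST-E1A and 125 nM His-CtBP (5X stocks) in Tris pH 8.0, 300 mM NaCl, BSA, Tween 20, TCEP. Compounds preincubated 2 h at 37 deg C, then glutathione donor/nickel acceptor beads added for 1 h at 37 deg C in dark.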
The depositor's hits bear a star; ? = inconclusive; . = no result given; & = joins results of further samples; [ ] = another dose, or the depositor's remark.

Below each compound: PINK1 expr mod	D2 ag	D2 PAM	TRPML1 agonist	Six1-Eya2 blk	CtBP-E1A blk
- O=C(NCCCCC(NC(=O)c1ccc([N+](=O)[O-])cc1)C(=O)O)c1ccc([N+](=O)[O-])cc1 (stereo not given)
  1.9%	-2.0	-15.1	0.6	-6.4	-1.9
- COc1ccc(Cn2c(=O)[nH]c3cc(C(=O)NCCCN4CCCC4)ccc3c2=O)cc1
  -0.7%	1.2	-9.7	-0.1	-6.7	4.9
- C=CCn1c(SCC(=O)N(C)C2CCS(=O)(=O)C2)nc2ccccc2c1=O (stereo not given)
  -0.1%	-17.0	-4.4	1.1	21.7	1.3
- CN(C)C(=O)C[n+]1ccc(/C=N/O)cc1
  1.6%	-3.6	-7.4	0.1	0.0	-1.6
- CC(=O)N(C)C[C@H]1Oc2cc(Br)ccc2S(=O)(=O)N([C@H](C)CO)C[C@@H]1C
  1.6%	-9.6	1.9	-0.1	1.6	1.1
- O=C(Nc1ccc(F)cc1F)NC1CC1
  0.3%	0.3	-0.9	-0.8	15.3	24.2
- O=C(Cc1cccs1)NCc1ccc2c(c1)OCO2
  -3.2%	-4.2	-13.5	0.1	2.0	5.7
- COc1cccc(Nc2nc(C(C)N)cs2)n1 (stereo not given)
  0.4%	-8.0	-17.2	-0.3	?	?
- COc1ccc(C(=O)c2c3ccc(C(F)(F)F)cc3[n+]([O-])n2CCCN)cc1
  0.9%	3.3	-5.1	0.4	5.3	-6.1
- CN1C(=O)NC(=O)C1c1ccccc1 (stereo not given)
  3.5%	3.4	-4.5	0.1	8.4	5.5
- COCCCNC(=O)CCCn1c(=O)c2ccccc2n(CC(=O)Nc2c(C)cccc2C)c1=O
  0.5%	-2.6	-13.3	0.8	-5.1	-0.5
- Cc1cccc(NC(=O)c2onc3c2CCCC3)n1
  2.1%	-0.7	-2.5	0.2	8.6	9.1
- CCOc1ccc(CCN2C(=O)c3cccnc3C2=O)cc1OCC
  0.7%	-0.6	-2.3	-0.2	-7.8	-1.9
- CCCCC(=O)NNC(=S)NC(=O)CCC
  0.9%	-6.5	-18.7	1.2	-0.3	-1.0
- Cc1ccc2c(NC(=O)c3ccco3)cccc2n1
  0.1%	-2.6	-11.1	-0.1	-0.4	-22.2
- Cc1csc(=O)n1CC(=O)OCC(=O)Nc1ccc(Cl)cc1F
  2.4%	-1.4	18.0	-1.1	4.5	-2.5
- CCOC(=O)Cc1csc(Nc2ccc(Cl)cc2)n1
  0.1%	3.5	-9.5	2.0	-0.1	.
- CC(C)(C)N(NC(=O)c1ccccc1)C(=O)c1cccc(C(=O)N(NC(=O)c2ccccc2)C(C)(C)C)c1
  0.7%	-0.6	-17.2	-0.5	12.0	-2.4
- CN(C)CCCNc1ncnc2c1cnn2-c1ccccc1
  1.0%	-5.2	-7.3	-0.6	-8.7	6.1
- CCOc1ccc(N(CC(=O)Nc2ccc(C)cc2)S(=O)(=O)c2c(C)[nH]c(=O)[nH]c2=O)cc1
  0.3%	-3.7	-8.5	-0.1	-9.0	-0.4
- O=C(CSc1nc2ccccc2[nH]1)Nc1ccc2[nH]c(=O)[nH]c2c1
  -2.8%	0.6	-9.7	-0.6	-21.0	-5.7
- COc1ccc(-c2cc(C(=O)N(C)Cc3ccccc3)no2)cc1OC
  -0.2%[38.3 µM]	-2.3	3.3	2.1	-1.1	-1.0
- CCC1CCCCN1S(=O)(=O)c1ccc(C(=O)Nc2nnc(-c3ccccc3Cl)o2)cc1 (stereo not given)
  -0.2%	0.6	4.2	16.8	-2.7	-9.1
- Cc1nnc(SCC(=O)Nc2cc(C(N)=O)cc(C(N)=O)c2)n1-c1ccccc1
  0.6%	0.5	-3.3	-0.5	-0.3	-9.9
- CCOC(=O)[C@H]1[C@H]2COc3ccc(OC)cc3[C@@H]2N2C(=O)c3cc(C)ccc3NC(=O)[C@@]12C
  -0.6%	-2.8	-10.7	0.7	1.5	-23.7
- CCOC(=O)N/N=C/c1c(C)nn(-c2ccccc2Cl)c1Cl
  16.1%	2.8	5.6	2.0	4.7	-2.2
- Cc1ccc(OCCn2cc(C=O)c3ccccc32)cc1
  0.6%	3.6	-6.2	1.1	19.8	-17.6
- COC(OC)C12c3ccccc3C(c3ccccc31)C1C(=O)N(c3cccnc3)C(=O)C12 (stereo not given)
  0.4%	-6.3	-4.0	-0.9	-5.8	0.0
- O=C(Cc1ccc([N+](=O)[O-])cc1)Nc1ccc(C(=O)N2CCOCC2)cc1
  0.5%	-1.6	-0.5	0.1	5.4	2.5
- COc1cc2c(cc1OC)C(c1cccc(Br)c1)NC(=O)C2 (stereo not given)
  1.7%	1.3	-0.8	-0.4	3.4	-10.9
- O=C(c1cc2c(c(-c3cccc(-c4ccncc4)c3)n1)[C@H](CCO)N(C(=O)c1ccc3c(c1)OCO3)C2)N1CCOCC1
  -0.1%	.	.	-0.5	-5.4	-0.8
- CSCCC(NC(=O)c1ccco1)C(=O)N(C)CC(=O)Nc1ccccc1Br (stereo not given)
  -0.3%	-7.9	-12.9	-0.1	-0.9	2.7
- O=C(NC1C2CCCC1CN(C1CC1)C2)c1ccc(Cl)cc1 (stereo not given)
  6.4%	-3.0	-2.7	.	-1.0	.
- COc1cc(C(=O)Nc2ccc(N3CCOCC3)cc2)ccc1OCc1c(C)noc1C
  12.0%	4.0	-26.4	-0.6	1.5	1.7
- CC(C)n1c(SCC(=O)NC2CC2)nnc1-c1ccco1
  -0.9%	-5.3	-6.0	1.1	2.6	-1.8
- CCn1c(Cn2nnc(-c3ccccc3)n2)nnc1SCC(=O)Nc1cccc(C)c1C
  1.6%[38.3 µM]	-1.3	0.4	3.3	1.9	8.2
- COc1ccc(CC(=O)N(Cc2ccccc2)C(C)C)cc1
  -1.2%	7.5	-1.0	-1.5	0.5	.
- Cc1[nH]c2ccc(C(=O)O)cc2c1C
  -0.4%[38.3 µM]	-1.2	-4.3	-0.3	-0.5	5.8
- COc1ccc(CN(C(C)=O)c2ccccc2C(=O)O)cc1
  1.1%	-0.6	6.1	0.7	0.3	4.4
- Cc1ccnc(SCC(=O)Nc2cc(C)on2)n1
  -1.1%	-2.9	-8.8	1.1	3.8	5.6
- Cc1ccc(NC(=O)C2COc3ccccc3O2)nc1 (stereo not given)
  0.6%	-3.9	-6.0	-0.7	1.8	9.7
- CCN(CC)CC(O)CN(c1ccccc1)S(=O)(=O)c1ccc2ccccc2c1 (stereo not given)
  0.5%	-0.9	-5.6	0.8	-2.9	-10.6
- O=C(Nc1ccc(NC(=O)c2cccs2)cn1)c1ccco1
  -1.1%	-1.4	1.1	1.0	-6.6	-1.1
- CN(C)c1nc(SCCOC(=O)Nc2ccccc2)nc(N(C)C)n1
  2.2%	-0.7	6.0	0.5	0.9	-13.0
- CCCCC1=NN(C(=O)c2cccnc2)C(O)(C(F)(F)F)C1 (stereo not given)
  -1.2%	-5.5	-11.2	-0.4	-8.6	-5.0
- CC(=O)N(Cc1ccc(F)cc1)C1=C(NCCc2ccccc2)C(=O)c2ccccc2C1=O
  -0.9%	8.2	9.9	-0.7	?	?
- O=C(Cc1ccccc1)Nc1ccc(NC(=O)c2ccco2)cc1Cl
  11.8%	1.1	-0.8	1.1	-3.1	10.2
- COc1cc(CC(NC(C)=O)C(=O)NC2CCN(C(=O)Nc3ccc(C)cc3)CC2)cc(OC)c1 (stereo not given)
  0.5%	-2.0	-4.7	1.3	8.6	6.3
- CCOC(=O)C1C(=O)CC(C)(O)C(C(=O)OCC)C1c1cc(Br)ccc1OC (stereo not given)
  0.1%[38.3 µM]	-1.8	0.6	-0.8	4.2	-1.5
- COc1ccc(NC(=O)c2ccc(-n3cccn3)c([N+](=O)[O-])c2)cc1
  -1.6%	-1.2	4.7	1.4	2.4	-11.8
- COc1ccc(Cn2nnnc2CN(Cc2cc3cc(C)ccc3[nH]c2=O)C2CCCC2)cc1
  .	-2.9	3.5	0.7	1.4	2.6
- CCN(CC)CCn1c(NS(=O)(=O)c2ccc(Cl)cc2)nc2ccccc21
  0.9%	-4.1	-21.3	1.2	0.5	.
- Cc1cccc(C(=O)N=c2c(C#N)cc3c(=O)n4cccc(C)c4nc3n2Cc2ccco2)c1
  1.6%&13.1%	-3.6&-4.4	-14.1&-11.1	6.9&0.3	?	0.0&-21.0
- CCOC(=O)CSC1=C(C#N)C(c2ccccc2)C(C(C)=O)=C(C)N1 (stereo not given)
  .	-1.2	18.2	-0.2	6.2	-10.4
- COc1cccc(C2c3[nH]c4ccccc4c3CCN2Cc2cccc(C)n2)c1 (stereo not given)
  0.8%	-5.4	-12.7	1.5	-5.6	.
- Cc1ccc(C)c(C(=O)O/N=C(\N)c2ccc(Br)cc2)c1
  -1.4%[38.3 µM]	11.8	56.6*	1.6	16.1	18.0
- CCOc1ncnc2c1sc1nc(C)cc(C)c12
  1.2%	-3.4	-1.9	-0.3	-3.5	-1.2
- COc1cc(C(=O)NCC2(N(C)C)CCCCC2)ccc1OCc1ccccc1
  -0.2%	-2.0	-19.9	-0.5	4.1	0.0
- COc1ccc(OC)c2[nH]c(=O)c(CCNC(=O)C(C)C)cc12
  0.6%	-6.2	-9.5	-0.4	-5.8	-1.6
- CN(C)c1nc(N)nc(-c2cccnc2)n1
  0.8%	-1.2	9.6	1.4	6.6	3.8
- CC(=O)NCC1(O)CCCC(C)C1 (stereo not given)
  1.0%	-1.4	-2.2	-0.1	0.3	0.5

Outcome played no part in choosing rows; 1.3% or so of the library scored in one or more.
